Screening data deposited in PubChem BioAssay by ICCB-Longwood Screening Facility, Harvard Medical School.
Sa helicase inh: inhibitors of S. aureus replicative helicase, primary screen, biochemical, fluorescence unwinding readout; purified S. aureus helicase, fluorescence unwinding assay; about half of the hits fall short of the stated cut; inhibition, %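 (tested at about 80 µM)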; 120,000 tested, 0.05% active;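 active means both duplicates at 50% or more, or one of them with a favoured structure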;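 further: 0% = mean of negative control wells and 100% = mean of positive control wells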
MgrA-DNA mod: S. aureus MgrA activity modulators, primary screen, biochemical, S. aureus Newman, fluorescence polarization. inhibition, %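 (about 10 µg/mL by stock and volumes)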. 84,000 tested, 0.13% active. MgrA-DNA binding;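 active means above 50% in either of two replicates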;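 further: 0% = protein plus DNA without compound and 100% = DNA alone without protein; higher means less MgrA bound to DNA so lower polarization; one replicate is shown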
Active calls of the source: *; & = joins results of further samples. These rows are one share of the data; the hit share may differ from the screen's.

For CC(C)CC1(C(=O)O)NC(c2ccccc2O)C2C(=O)N(C(C)C)C(=O)C21 (stereo unspecified) the results were Sa helicase inh -3 and MgrA-DNA mod -1.7.
Screening Cc1cccc(-c2nc(C)c(CCNC(=O)C(C)(C)C)s2)c1 returned Sa helicase inh -2 and MgrA-DNA mod 1.7.
Screening Cc1nn(-c2ccccc2)c(C)c1P(=Nc1ccc(Br)cc1)(N1CCOCC1)N1CCOCC1 returned Sa helicase inh 4.
Screening CC1(C)CC(=O)c2cc(C#N)c(SCc3ccccc3)nc2C1 returned Sa helicase inh -20 and MgrA-DNA mod -1.0.
`COCCNC(=O)c1ccc(CS(=O)(=O)Cc2ccc(C)cc2)o1` gave Sa helicase inh 0.
`CN1CCC(=NOC(=O)Nc2ccccc2)CC1` gave Sa helicase inh -11.
O=C(NCc1ccc(Cl)cc1)c1cc2ccccc2nc1Cl was read as Sa helicase inh 0 and MgrA-DNA mod 0.4.
For CC(C)C(NC(=O)c1ccco1)C(=O)N1CCC(Cc2ccccc2)CC1 (stereo unspecified) the results were Sa helicase inh -7.
CCOC(=O)c1cnn(-c2ccc(C(C)C)cc2)c1C1CCN(C(=O)OC(C)(C)C)CC1 was read as Sa helicase inh 6 and MgrA-DNA mod -1.7.
`O=C(CSc1nnc(-c2cccs2)o1)Nc1cc(C(F)(F)F)ccc1N1CCOCC1` gave Sa helicase inh -4.
Screening Cc1ccc(C2CC(=O)CC(=O)C2)cc1 returned MgrA-DNA mod 0.8.
Screening CC1Cc2ccccc2N1NC(=O)c1ccc(Cl)c(S(N)=O)c1 (stereo unspecified) returned MgrA-DNA mod -1.1.
For CC(C)C(C)NC(=O)COc1nc2ccccc2nc1N(C)C1CCCCC1 (stereo unspecified) the results were Sa helicase inh 6.
CSc1nc(-c2ccc(C(C)(C)C)cc2)c(C#N)c(=O)[nH]1 was read as Sa helicase inh 5.
`O=c1[nH]c(=O)n(-c2ccc(F)cc2)c(O)c1C=Nc1ccccc1` gave Sa helicase inh 6 and MgrA-DNA mod -3.3.
`CC1CCN(CC(=O)NCc2ccccc2)CC1` gave Sa helicase inh 14 and MgrA-DNA mod -2.1.
`O=C(O)CCC(=O)Nc1cccc(-c2nc3ccccc3o2)c1` gave Sa helicase inh -12.
Screening COc1ccc(-c2cc(=O)c3c(O)c(OC)c(OC)c(OC)c3o2)cc1 returned MgrA-DNA mod -0.9.
Screening CCOc1ccc(-n2c(SCC(=O)N(C)C3(C#N)CCCCC3)nc3ccccc32)cc1 returned Sa helicase inh -6.
`Cc1ccc(C(=O)O)cc1S(=O)(=O)NCc1ccco1` gave Sa helicase inh -12.

The final 3 records of the section above lead into the next:
Screening COc1ccc(-c2cc(=O)c3c(O)c(OC)c(OC)c(OC)c3o2)cc1 returned MgrA-DNA mod -0.9.
Screening CCOc1ccc(-n2c(SCC(=O)N(C)C3(C#N)CCCCC3)nc3ccccc32)cc1 returned Sa helicase inh -6.
`Cc1ccc(C(=O)O)cc1S(=O)(=O)NCc1ccco1` gave Sa helicase inh -12.
Screening O=C(CCN1C(=O)/C(=C\c2cccs2)SC1=S)Nc1ccccn1 returned MgrA-DNA mod -1.9.
`O=C(CNCc1ccccc1F)NC(=O)Nc1ccc2c(c1)OCCO2` gave Sa helicase inh -5.
`COc1cc2c(cc1OC)CN(c1ncnc3c1oc1ccccc13)CC2` gave Sa helicase inh -3.
Screening O=C(CSC(=S)N1CCOCC1)c1ccc(Cl)cc1 returned MgrA-DNA mod -0.1.
COC(=O)C1=NNC2C(=O)N(c3ccccc3C(F)(F)F)C(=O)C12 (stereo unspecified) was read as Sa helicase inh 16 and MgrA-DNA mod -0.9.
Screening COc1cccc2sc(NC(=O)c3ccc(S(=O)(=O)N4CCCc5ccccc54)cc3)nc12 returned MgrA-DNA mod 3.2.
`N=C1c2ccccc2CN1c1ncc(C(F)(F)F)cc1Cl` gave Sa helicase inh -11 and MgrA-DNA mod -0.1.
For O=C(O)C1=C(C(=O)NC2CCCc3ccccc32)SCCS1 (stereo unspecified) the results were MgrA-DNA mod 2.5.
`COc1cc([C@@H]2c3cc4c(cc3C(OC3O[C@@H]5COC(C)O[C@H]5[C@H](O)[C@H]3O)C3COC(=O)[C@@H]32)OCO4)cc(OC)c1O` (stereo partly specified) gave MgrA-DNA mod -1.1.
For Cc1cccc(N2C(=O)CC(Sc3nccc(C)n3)C2=O)c1 (stereo unspecified) the results were Sa helicase inh 4 and MgrA-DNA mod 0.9.
Screening CC(C)C(Nc1ncnc2sc3c(c12)CCC3)C(=O)O (stereo unspecified) returned Sa helicase inh -14.
`Cc1cccc(C)c1N(CC(=O)NN=C1CCCCCC1)S(C)(=O)=O` gave Sa helicase inh -10.
`COc1ccccc1C(=O)Oc1ccc2sc(=O)oc2c1` gave Sa helicase inh 14.
CCSc1nc2sccc2c(=O)n1-c1ccccc1 was read as Sa helicase inh 15.
Screening NS(=O)(=O)c1ccc(NC(=O)COC(=O)CN2C(=O)CCC2=O)cc1 returned Sa helicase inh 16.
Screening c1ccc(CN=C2NN=C(c3ccccc3)CS2)cc1 returned Sa helicase inh -4.
O=C(NCCN1CCCCCC1)c1csc2c1CCCC2 was read as Sa helicase inh 3.
For Cc1cc(C)nc(NCCCC(=O)O)n1 the results were Sa helicase inh -15 and MgrA-DNA mod 10.
Screening CC(=O)N1c2ccccc2N=C(c2ccc(C)cc2)CC1c1ccccc1 (stereo unspecified) returned Sa helicase inh 13 and MgrA-DNA mod 0.1.
O=C(C1CCCN(c2ncnc3onc(-c4ccc(F)cc4)c23)C1)N1CCCCC1 (stereo unspecified) was read as Sa helicase inh -23.
CCOc1ccc(OCCOC(=O)c2cnc(C)cn2)cc1 was read as Sa helicase inh 7.
`N#Cc1ccc(COC(=O)c2ccc3c(c2)OCCO3)cc1` gave Sa helicase inh -12.
For CCn1nnnc1SCC(=O)c1ccc(C)cc1C the results were Sa helicase inh -6 and MgrA-DNA mod 0.3.
For CCN1CCc2nc3sc(C(=O)Nc4ccccc4)c(N)c3cc2C1 the results were Sa helicase inh -4.
Screening CCNc1cc(N(C)CCO)c2noc3c2c1C(=O)c1ccccc1-3 returned Sa helicase inh -121.
Cc1c(NC(=S)Nc2ccc(Cl)c(Cl)c2)cc2c(c1N)C(C)(C)CC2(C)C was read as MgrA-DNA mod -0.9.
Screening Clc1cccc(NCc2cccc3c2CN(CC2CCCO2)C3)c1 (stereo unspecified) returned Sa helicase inh 0 and MgrA-DNA mod -4.0.
Screening Cc1nonc1NC(=O)CSc1ccccn1 returned Sa helicase inh 3 and MgrA-DNA mod -0.1.
`O=C1S/C(=C\c2ccc(Cl)cc2)C(=O)N1Cc1ccccc1` gave Sa helicase inh 14 and MgrA-DNA mod 0.0.
`Cc1ccccc1Nc1nc(N)nc(CSCC(=O)N2CCc3ccccc32)n1` gave Sa helicase inh -8.
Screening O=C(O)CC(CC(=O)Nc1ccccc1)c1ccccc1 (stereo unspecified) returned MgrA-DNA mod -0.9.
O=C(Nc1nncs1)c1ccco1 was read as Sa helicase inh 31.
Cn1ccsc1=NC(=O)Cc1ccc(Cl)c(Cl)c1 was read as Sa helicase inh -18.
For COc1cc2c(cc1O[C@@H]1O[C@H](CO)[C@@H](O)[C@H](O)[C@H]1O)CCN1CC=C3C=C[C@@H](OC)CC321 (stereo partly specified) the results were MgrA-DNA mod 2.8.
Screening COc1cccc(/C=C/C(=O)OCC(=O)N2CCC(C)CC2)c1 returned Sa helicase inh 29.
Nc1cccc(/C=C/c2ccncc2)c1 was read as Sa helicase inh 6 and MgrA-DNA mod 1.4.
O=C(COc1ccc(S(=O)(=O)N2CCCC2)cc1)N1CCCC1 was read as Sa helicase inh -5 and MgrA-DNA mod -1.4.
Screening N#Cc1c(SCC(=O)Nc2nccs2)nsc1SCC(=O)Nc1nccs1 returned Sa helicase inh 14.
`O=c1oc(-c2ccccc2)nc2sc(-c3ccccc3)c(Cc3ccccc3)c12` gave MgrA-DNA mod 3.0.
COC(CNc1cc(C)nc2c(-c3ccc(Cl)cc3)c(C)nn12)OC was read as Sa helicase inh 8.

Ordered by heavy-atom count (ascending): part of the list above.
Cn1ccsc1=NC(=O)Cc1ccc(Cl)c(Cl)c1 was read as Sa helicase inh -18.
Screening c1ccc(CN=C2NN=C(c3ccccc3)CS2)cc1 returned Sa helicase inh -4.
`Cc1cccc(C)c1N(CC(=O)NN=C1CCCCCC1)S(C)(=O)=O` gave Sa helicase inh -10.
`COc1cc2c(cc1OC)CN(c1ncnc3c1oc1ccccc13)CC2` gave Sa helicase inh -3.

The list goes on:
`Cc1ccc(Nc2cc(Nc3ccccc3)ncn2)cc1` gave Sa helicase inh -53.
For CC1CCN(C(=O)CCCC(=O)O)CC1 the results were Sa helicase inh 13 and MgrA-DNA mod -4.7.
For C=C(C)c1cccc(C(C)(C)NC(=O)N2CCN(c3ccc(OC)cc3)CC2)c1 the results were Sa helicase inh -13.
`Cc1csc2nc(CSCC(=O)N3CC(C)CC(C)C3)cc(=O)n12` (stereo unspecified) gave Sa helicase inh 9.
Screening CCCc1nc2ccccc2n1CCC returned Sa helicase inh 11.
For O=c1[nH]c(=S)[nH]c2nc(-c3cccs3)cc(C(F)(F)F)c12 the results were Sa helicase inh -17.
`Cc1cccc(-c2nnc(SCc3nc4sc5c(c4c(=O)[nH]3)CCC(C)C5)n2C)c1` (stereo unspecified) gave Sa helicase inh -49.
Screening O=C(CCc1ccc(O)cc1)NNC(=O)C1C2C=CC(C2)C1C(=O)O (stereo unspecified) returned MgrA-DNA mod -9.4.
`O=C(NCCSc1nnnn1-c1ccccc1)Nc1ccccc1` gave Sa helicase inh 3 and MgrA-DNA mod -0.6.
`CC(C)OC(=S)Nc1cccc(Cl)c1` gave MgrA-DNA mod 0.3.
Screening CCOC(=O)N1CC(=O)Nc2ccc(Br)cc2C1c1ccccc1 (stereo unspecified) returned Sa helicase inh -3.
Screening O=C(O)COCC(=O)Nc1ccc(Br)cc1 returned Sa helicase inh 0 and MgrA-DNA mod -6.8.
For C/C(=N\N=c1/sc2ccccc2n1C)c1ccc(S(=O)(=O)NCc2ccco2)cc1 the results were Sa helicase inh 11.
For CC(=O)Nc1ccc(S(=O)(=O)NC2C3(C)CCC(C3)C2(C)C)cc1 (stereo unspecified) the results were MgrA-DNA mod -0.1.
Screening CCC(=O)NCCSc1c(C)[nH]c2ccccc12 returned Sa helicase inh -8.
`NC(=O)C1CCN(C(=O)c2ccccc2)CC1` gave Sa helicase inh 12 and MgrA-DNA mod 2.0.
For CCC(=O)Oc1ccc(C#N)cc1OC the results were Sa helicase inh 3 and MgrA-DNA mod -0.2.
Screening O=C(CN1c2ccccc2Sc2ccccc21)N/N=C/c1ccco1 returned Sa helicase inh 18.
For FC(F)(F)c1cc(N2CCN(c3ccccc3)CC2)c2cccc(Cl)c2n1 the results were Sa helicase inh -18.
Screening CC1CCCN(S(=O)(=O)c2cccc(S(C)(=O)=O)c2)C1 (stereo unspecified) returned Sa helicase inh -18 and MgrA-DNA mod -0.2.

Pulled by structure from the list above:
For FC(F)(F)c1cc(N2CCN(c3ccccc3)CC2)c2cccc(Cl)c2n1 the results were Sa helicase inh -18.
For CC1CCN(C(=O)CCCC(=O)O)CC1 the results were Sa helicase inh 13 and MgrA-DNA mod -4.7.

The list goes on:
For O=c1c2[nH]c3ccccc3c2ncn1CCCN1CCCC1 the results were Sa helicase inh 12 and MgrA-DNA mod -0.1.
CCCN(C(=O)c1ccc(=O)n(C)n1)S(=O)(=O)c1ccc(Cl)cc1 was read as Sa helicase inh -8.
CCC(N)CC12CC3CC(CC(C3)C1)C2 (stereo unspecified) was read as Sa helicase inh 9 and MgrA-DNA mod 1.4.
Screening O=C(O)CCS(=O)(=O)c1ccc2c(c1)OCCO2 returned Sa helicase inh -17 and MgrA-DNA mod -0.5.
Screening O=C(COC(=O)C12CC3CC(CC(C3)C1)C2)Nc1cc(F)ccc1F returned Sa helicase inh 25 and MgrA-DNA mod 2.0.
For O=c1[nH]c2ccc(N=Cc3cc(Br)c(O)c(Br)c3O)cc2[nH]1 the results were Sa helicase inh 7 and MgrA-DNA mod 1.4.
For O=C(O)C1CCCC1C(=O)O (stereo unspecified) the results were MgrA-DNA mod 0.0.
`NC(=O)c1nn(CC(=O)N2CCCN(S(=O)(=O)c3ccc(F)cc3)CC2)c(=O)c2ccccc12` gave Sa helicase inh 11.
For O=C(c1cc(-c2ccccc2O)no1)N1CCOCC1 the results were Sa helicase inh 1 and MgrA-DNA mod -0.4.
For C[C@]12CC[C@@H]3c4ccc(O)cc4CC[C@H]3[C@@H]1CC[C@@H]2O the results were MgrA-DNA mod 1.4&-0.5.
Cc1cc(C(=O)CSc2ncn[nH]2)c(C)n1CC(F)(F)F was read as Sa helicase inh 9.
Screening O=C(O)C1C2C=CC(C2)C1C(=O)Nc1ccc(-c2csnn2)cc1 (stereo unspecified) returned MgrA-DNA mod 1.4.
`CC1(C)CC(CCC(=O)Nc2ccccc2Cl)C(=O)O1` (stereo unspecified) gave Sa helicase inh -1.
`Cc1ccc(/C(O)=C2\C(=O)C(=O)N(C)C2c2ccccc2)cc1` (stereo unspecified) gave Sa helicase inh 1 and MgrA-DNA mod -0.3.
For Cc1csc(SCC(=O)c2ccc(S(=O)(=O)N3CCCCC3)cc2)n1 the results were Sa helicase inh -10.
`CCOC(=O)c1[nH]c(C(=O)O)c(C(=O)OCc2ccccc2)c1CCC(=O)O` gave Sa helicase inh 1 and MgrA-DNA mod -1.5.
For O=C(/C=C/c1cccs1)NCCCN1CCOCC1 the results were Sa helicase inh 7 and MgrA-DNA mod -0.8.
`Cc1ccc(N(C(=O)NC2CCCCC2)C2=NCCCCC2)cc1` gave Sa helicase inh -2.
